HNF4A DNA FP: change in binding of human HNF4 alpha to DNA; activity change, % at 10 µM; P41235; HNF4a-FITC DNA binding, fluorescence polarization, 1 h; actives 0.3% (n = 360,000); in the data active means activity change above about 30%, passing the limit was not always enough;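 further: controls were the assay level and a saturating level of protein; the project sought stronger binding though the title names inhibitors; some compounds called inactive have numbers as strong as hits; positive values seem to mean higher polarization but the record does not say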
Ecoli growth: E. coli growth inhibition; OD600 absorbance (no concentration beside the values); actives 0.21% (n = 330,000); Escherichia coli growth, OD600, 23 h; hits give low values;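 active means OD600 absorbance below the run mean of sample wells minus 3.6 SD, in any replicate, cut at about 0.56 in these data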;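 further: stock transfer was 300 nL into about 60 µL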
Vif A3G: HIV-1 Vif–A3G interaction blockers – biochemical, TR-FRET, GST-Vif 1-94, biotin-A3G peptide, dose response retest, primary screen (AID 1117319); TR-FRET GST-Vif / biotin-A3G peptide binding; higher % means a stronger effect; test concentration not given here; strong numbers were not always called active; one-dose inhibition, %; IC50 in µM for titrated hits; actives 0.57% (n = 260,000);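 active means above the screen mean plus three standard deviations and confirmed in dose response; inconclusive means results disagree or hit not tested in dose response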;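 further: Vif residues 1-94 fused to GST binding biotinylated APOBEC3G peptide 110-148; 0% = full assay without inhibitor and 100% = GST in place of GST-Vif; retest series ran down from 100 µM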
FGF22 binding: FGF22 (human) thermal shift binding. recombinant FGF22 thermal shift, SYPRO orange fluorescence; percent of sucrose octasulfate shift, DMSO zero. actives 1.5% (n = 340,000). calls only at 9.99 µM. Q9HCT0;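 active means melting point raised past a set limit in the mean and every replicate; inconclusive means no clear call; three in four hits are not shown here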
Target sequence (Q9HCT0 whole entry, looked up): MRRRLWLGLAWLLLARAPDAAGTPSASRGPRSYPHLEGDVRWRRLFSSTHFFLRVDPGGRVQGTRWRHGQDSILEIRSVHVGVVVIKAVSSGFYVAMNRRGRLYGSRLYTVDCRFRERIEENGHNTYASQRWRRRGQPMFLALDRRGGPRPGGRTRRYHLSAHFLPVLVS
rRNA inh HTS: selective bacterial rRNA inhibition in E. coli. E. coli WT GFP vs humanized-ribosome RFP mutants, fluorescence, 24 h; hits give low values; DMSO median 0, no signal -100. GFP signal change (wild-type ribosome), % (no concentration beside the values). actives 1.6% (n = 350,000);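 active means significant combined selectivity score with lowered wild-type GFP, culture density cut under 30%, mutant RFP and density less affected; inactive means any of these conditions unmet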; further: one replicate is shown; some compounds called inactive have numbers as strong as hits
ALR inh: inhibitors of human sulfhydryl oxidase ALR; actives 3.8% (n = 290,000); inhibition, % (concentration not given with the values); purified ALR, DTT oxidation, H2O2 HRP-luminol luminescence; P55789;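 active means mean and each replicate at 75% or more; inconclusive means only one of the two met; inactive means neither met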;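 further: stock transfer was 7.5 nL into about 7.5 µL; 0% = neutral wells and 100% = wells with inactivated enzyme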
Target sequence (P55789 whole entry, looked up): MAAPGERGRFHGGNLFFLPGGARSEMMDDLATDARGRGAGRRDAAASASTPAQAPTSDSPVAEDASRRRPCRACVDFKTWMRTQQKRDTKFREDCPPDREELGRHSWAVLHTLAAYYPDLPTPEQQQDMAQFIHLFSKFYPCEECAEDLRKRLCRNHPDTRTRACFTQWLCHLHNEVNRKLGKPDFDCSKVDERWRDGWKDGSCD
MLL AF4-AF9 inh: inhibitors of human MLL-AF4/AF9 interaction; AlphaScreen, biotin-AF4 peptide binding to FLAG-AF9; inhibition, % at 10 µM; actives 0.47% (n = 350,000); AID 651704;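 active means every replicate reaching a set inhibition limit, whatever the replicate mean, cut at about 25% in these data; inconclusive means mean inhibition reaches that limit but some replicates miss it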;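 further: 0% = plate neutral control median and 100% = total signal loss; the record names both 10 and 1 µM as test concentration; the first replicate is given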
Target sequence (P42568 whole entry, looked up): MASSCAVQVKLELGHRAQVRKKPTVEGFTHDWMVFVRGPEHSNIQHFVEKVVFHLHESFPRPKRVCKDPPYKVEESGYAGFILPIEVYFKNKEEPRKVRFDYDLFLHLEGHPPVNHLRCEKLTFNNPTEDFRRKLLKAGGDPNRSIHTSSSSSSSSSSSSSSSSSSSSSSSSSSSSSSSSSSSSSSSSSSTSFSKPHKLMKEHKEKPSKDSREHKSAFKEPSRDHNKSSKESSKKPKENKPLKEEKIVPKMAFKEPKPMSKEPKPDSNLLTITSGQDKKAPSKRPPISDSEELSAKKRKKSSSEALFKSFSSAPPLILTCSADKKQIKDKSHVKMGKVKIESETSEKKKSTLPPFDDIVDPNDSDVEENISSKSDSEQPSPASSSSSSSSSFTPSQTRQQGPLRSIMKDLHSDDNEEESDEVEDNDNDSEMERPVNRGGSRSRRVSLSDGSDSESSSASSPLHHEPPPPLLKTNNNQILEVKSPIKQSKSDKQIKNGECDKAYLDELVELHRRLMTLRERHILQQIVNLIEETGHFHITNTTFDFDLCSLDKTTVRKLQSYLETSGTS
rRNA inh HTS OD600: recorded beside rRNA inh HTS, whose call it bears; OD600 change, %; measured here: OD600 growth;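 optical density of the mix in the first replicate; 0 = DMSO median and -100 = no signal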
rRNA inh HTS RFP: recorded beside rRNA inh HTS, whose call it bears; RFP signal change, %; measured here: RFP humanized mutant strains;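 first replicate; 0 = DMSO median and -100 = no signal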
* = called active by the depositor; i = inactive; ? = inconclusive; nt = not tested or not shown; & = joins results of further samples. Not all compounds are listed, so the mix of outcomes need not match the whole.

[1] CCCn1c(=O)c2c(nc3n2CCN3Cc2ccco2)n(C)c1=O
[2] Cc1ccc(S(=O)(=O)N(C)C[C@H]2OCCCC[C@H](C)Oc3ccc(NS(=O)(=O)c4cccs4)cc3C(=O)N([C@@H](C)CO)C[C@@H]2C)cc1
[3] C[C@@H]1CN([C@H](C)CO)C(=O)c2cc(NC(=O)CCC(F)(F)F)ccc2O[C@@H](C)CCCCO[C@H]1CN(C)Cc1ccc(C(=O)O)cc1
[4] COC[C@H]1CCCN1c1ccc2c(c1)O[C@@H](COCc1ccccc1)CN([C@@H](C)c1ccccc1)S2(=O)=O
[5] Nc1nnc(SCCCC(=O)c2ccc(Br)cc2)s1
[6] Cc1nc(SCC(=O)c2ccc(Cl)s2)c2oc3ccccc3c2n1

Compound,1,2,3,4,5,6
HNF4A DNA FP,-2.6,nt,nt,0.8,-2.7,-1.3
Ecoli growth,0.71,nt,nt,nt,0.68,0.68
Vif A3G,?,nt,nt,nt,nt,-13%
FGF22 binding,i,i,i,i,i,nt
rRNA inh HTS,-3,-6,1,7,4,nt
rRNA inh HTS OD600,2,4,0,12,11,nt
rRNA inh HTS RFP,-3.0,0.9,-1.8,-5.0,0.1,nt
ALR inh,18,nt,nt,nt,-4,30
MLL AF4-AF9 inh,-6.8,0.4,-2.3,-1.5,-0.9,nt

[7] CC[C@H](CO)NCCN[C@H](CC)CO
[8] C[C@@H]1CN([C@@H](C)CO)S(=O)(=O)c2ccc(C#CCC3CCCC3)cc2O[C@@H]1CN(C)Cc1ccc(C(=O)O)cc1
[9] O=C(CN1CCN(c2ccc(F)cc2)CC1)N1N=CCC1c1ccccc1 (centres undefined)
[10] O=C(Nc1ccc(Cl)cc1C(F)(F)F)c1ccccc1
[11] C[C@@H]1CN[C@@H](CCO)/C1=C\c1ccccc1
[12] CCOC(=O)N1CCC(NC(=O)c2cc(S(=O)(=O)N3CCOCC3)ccc2F)CC1

Compound,7,8,9,10,11,12
HNF4A DNA FP,2.4,nt,-1.3,2.6,-2.9,-1.1
Ecoli growth,nt,nt,0.71,0.69,0.69,0.67
Vif A3G,?,nt,-7%,7%,-2%,1%
FGF22 binding,i,i,i,nt,i,i
rRNA inh HTS,nt,0,4,nt,3,nt
rRNA inh HTS OD600,nt,1,6,nt,2,nt
rRNA inh HTS RFP,nt,1.6,-5.3,nt,-7.6,nt
ALR inh,-8,nt,56,0,nt,2
MLL AF4-AF9 inh,-1.2,6.4,-34,nt,1.6,5.6

[13] COc1ccc(NC(=O)c2cc(-c3ccccc3)on2)cc1
[14] CCOc1ccc(C(=O)c2nc3c(n2O)CCCC3)cc1
[15] O=S(=O)(Nn1c(O)c(C=C2N=c3ccccc3=N2)sc1=S)c1ccccc1
[16] O=C(O)/C=C/C(=O)NNC(=O)c1cccc(Br)c1
[17] COc1ccc2c(c1OC)C(=O)N(c1cccc(NC(C)=O)c1)C2
[18] COc1ccc(-c2cc(C(=O)Nc3cc(Cl)ccc3O)no2)cc1

Compound,13,14,15,16,17,18
HNF4A DNA FP,4.1,1.2,7.8,2.8,-0.7,4.7
Ecoli growth,0.67,0.62,nt,0.73,0.64,0.7
Vif A3G,nt,1%,?,7%,1%,-12%
FGF22 binding,i,i,i,i,nt,i
rRNA inh HTS,4,8,11,18,-9,13
rRNA inh HTS OD600,11,9,5,13,-3,15
rRNA inh HTS RFP,1.2,-2.1,0.1,-1.4,-1.6,-0.9
ALR inh,-3,nt,nt,9,97*,-14
MLL AF4-AF9 inh,0.1,3.5,0.6,3.1,0.9,-1.6

[19] CCc1c(C)nc(SCC(=O)Nc2c(C)n(C)n(-c3ccccc3)c2=O)[nH]c1=O
[20] COC(=O)C1=C(C)NC(=O)CC1c1ccc(F)c(Br)c1 (centres undefined)
[21] Cc1cc(C(=O)O)ccc1-n1c(C)cc(C=C2C(=O)c3ccccc3C2=O)c1C
[22] COc1ccc(Cc2c(-c3ccc(C#N)cc3)nc3c4ccccc4ccn23)c(C)c1
[23] NC(=O)c1ccc(NCC2CCCO2)c([N+](=O)[O-])c1 (centres undefined)
[24] COc1ccc(OC)c(/C=N/n2c(-c3n[nH]c4c3CCC4)n[nH]c2=S)c1

Compound,19,20,21,22,23,24
HNF4A DNA FP,1.8,0.3,6.6,18,-4.8,-1.2
Ecoli growth,0.74,0.74,0.67,nt,0.67,nt
Vif A3G,2%,14%,-11%,nt,nt,nt
FGF22 binding,nt,i,nt,i,i,i
rRNA inh HTS,nt,-9,19,11,2,-3
rRNA inh HTS OD600,nt,-4,7,8,5,-19
rRNA inh HTS RFP,nt,-1.8,5.5,42,0.0,-1.0
ALR inh,2,-9,-2,nt,-7,nt
MLL AF4-AF9 inh,nt,-4.3,8.2,0.4,-0.1,7.3

[25] Cn1nc(-c2ccccc2)c(C(=O)NC(C(=O)O)c2ccccc2)c1Cl (centres undefined)
[26] CC(SC1=NCCS1)C(=O)Nc1nnc(-c2ccc(F)cc2)s1 (centres undefined)
[27] COC(=O)C1=CN(Cc2cccs2)C=C(C(=O)OC)C1c1cccc(Cl)c1
[28] CCOC(=O)c1csc(NC(=O)CSc2nnnn2-c2ccc(OCC)cc2)n1
[29] COc1ccc(NS(=O)(=O)c2cc(NC(=O)COc3ccc(OC)cc3)ccc2N2CCOCC2)cc1
[30] CCOC(=O)c1cc(-c2ccc(C)cc2)n(CCC(=O)N2CCN(c3ccccn3)CC2)c1C

Compound,25,26,27,28,29,30
HNF4A DNA FP,-2.1,-4.2,0.7,6.5,7.2,-2.8
Ecoli growth,0.69,0.79,0.7,0.73,0.73,0.71
Vif A3G,-1%,-1%,2%,-2%&26%,nt,9%
FGF22 binding,i,i,i,i,i,i
rRNA inh HTS,11,2,nt,9,-3,-26
rRNA inh HTS OD600,10,-3,nt,2,0,-46
rRNA inh HTS RFP,-1.7,-7.1,nt,-5.0,3.7,-15
ALR inh,6,18,-2,nt,1,-17
MLL AF4-AF9 inh,0.1,7.8,-18,-18,1.8,16

[31] CC(C)NC(NC(=O)/C=C/c1ccccc1)C(Cl)(Cl)Cl (centres undefined)
[32] COc1ccc(C(CC(=O)O)NS(=O)(=O)c2ccc3c(c2)N(C(C)=O)CC(C)O3)cc1 (centres undefined)
[33] C=CCn1c(SCC(=O)NNC(=O)Nc2cccc(Cl)c2)nnc1-c1ccccc1
[34] CSc1cccc(NC(=S)N(CCC(C)C)C2CCN(C(C)=O)CC2)c1
[35] O=C(CSc1nnc(Cn2c(=O)sc3ccccc32)n1-c1ccccc1)NCc1ccco1
[36] Cc1noc(C)c1S(=O)(=O)Nc1ccc2c(c1)C(=O)N([C@H](C)CO)C[C@@H](C)[C@@H](CN(C)S(C)(=O)=O)O2

Compound,31,32,33,34,35,36
HNF4A DNA FP,0.2,7.3,2.1,2.1,-1.3,nt
Ecoli growth,0.66,0.67,0.6,0.68,0.73,nt
Vif A3G,5%,-1%,2%,9%,15%,nt
FGF22 binding,i,i,i,i,i,i
rRNA inh HTS,nt,6,-33,-1,2,2
rRNA inh HTS OD600,nt,2,-46,-7,2,11
rRNA inh HTS RFP,nt,-0.6,-3.2,3.2,-1.7,-1.3
ALR inh,7,-6,12,-5,-7,nt
MLL AF4-AF9 inh,1.1,-0.9,1.7,14,-0.5,-4.2

[37] CC1CCN(Cc2c(C(=O)N/N=C/c3cccc(C(F)(F)F)c3)nnn2-c2nonc2N)CC1
[38] CCOc1ccccc1NC(=O)c1cnc(NS(=O)(=O)c2ccccc2)nc1
[39] CO[C@H]1CC[C@H]2CCOc3ccc(C#N)cc3C(=O)N(C)C[C@H](C)C(=O)N(C)C[C@@H]1O2
[40] O=C(CN1CCN(c2nc(-c3ccc(F)cc3)cs2)CC1)NCc1ccc2c(c1)OCO2
[41] COc1ccc(N2CCN(CCCNC(=O)C3CCCN(S(=O)(=O)c4cnc[nH]4)C3)CC2)cc1 (centres undefined)
[42] COCC(=O)Nc1ccc2c(c1)C(=O)N(C)C[C@@H](OC)[C@@H](C)CN(Cc1ccccc1OC)[C@@H](C)CO2

Compound,37,38,39,40,41,42
HNF4A DNA FP,2.3,0.4,nt,0.5,1.8,nt
Ecoli growth,nt,0.63,nt,0.69,0.76,nt
Vif A3G,nt,nt,nt,0%&-4%,22%,nt
FGF22 binding,i,i,i,nt,i,i
rRNA inh HTS,-1,2,3,nt,7,1
rRNA inh HTS OD600,11,2,-10,nt,3,1
rRNA inh HTS RFP,-2.4,-2.9,4.4,nt,1.7,-0.4
ALR inh,-4,-3,nt,-1,87*,nt
MLL AF4-AF9 inh,-2.1,-1.4,0.3,nt,-28,5.8

[43] O=C(CN1CCOCC1)n1c2ccccc2c2ccccc21
[44] CC1CC(C#N)N(N(C)C)C1=C(C#N)C#N (centres undefined)
[45] CC(O)CNCc1ccccc1C(F)(F)F (centres undefined)
[46] Cc1cc(C)cc(N(CC(=O)NC2CCCCC2)C(=O)CNC(=O)c2ccco2)c1
[47] O=C(COc1cccnc1[N+](=O)[O-])Nc1cccc2ccccc12
[48] O=C(Nc1cccc(S(=O)(=O)N2CCOCC2)c1)c1cc(=O)[nH]c2ccccc12

Compound,43,44,45,46,47,48
HNF4A DNA FP,1.6,4.9,4.0,0.1,-1.7,-3.2
Ecoli growth,0.68,0.68,0.7,0.71,0.69,0.65
Vif A3G,6%,6%,-2%,nt,-1%,nt
FGF22 binding,nt,i,i,i,nt,i
rRNA inh HTS,nt,14,10,2,nt,5
rRNA inh HTS OD600,nt,8,3,2,nt,9
rRNA inh HTS RFP,nt,2.0,-3.1,-0.8,nt,-0.7
ALR inh,-15,-2,2,2,-4,-8
MLL AF4-AF9 inh,nt,-1.8,-0.2,1.9,nt,0.6

[49] Cc1ccc(S(=O)(=O)NCc2ccccc2)cc1C(=O)N1CCN(c2ccccc2)CC1
[50] CCOC(=O)c1cc(NC(=O)Nc2ccccc2Cl)c(C)nc1C
[51] O=C(c1ccncc1)N1CCCCN2[C@H](CO)[C@@H](c3ccc(-c4ccccc4)cc3)[C@@H]2C1
[52] O=C(NCC[C@@H]1CC[C@@H](NS(=O)(=O)Cc2ccccc2)[C@@H](CO)O1)C1CC1
[53] CCN(C(=O)CSc1nnc(Cc2cccc3ccccc23)n1N)C1CCS(=O)(=O)C1 (centres undefined)

Compound,49,50,51,52,53
HNF4A DNA FP,2.4,6.8,nt,-2.0,2.5
Ecoli growth,0.69,0.7,nt,nt,0.71
Vif A3G,-5%,-9%,nt,nt,2%
FGF22 binding,i,i,i,i,nt
rRNA inh HTS,-10,0,1,3&10,nt
rRNA inh HTS OD600,-15,2,5,1&4,nt
rRNA inh HTS RFP,5.0,-1.6,-1.2,0.5&1.8,nt
ALR inh,24,-1,nt,nt,-5
MLL AF4-AF9 inh,5.6,-1.4,-4.8,1.5&0.7,nt

Screening results: PubChem, several laboratories
